# RE007 growth inh – less growth of the S. pombe RE007 Vpr strain. S. pombe RE007 Vpr strain, BacTiter-Glo ATP luminescence, 24 h; control for the full effect not named in the record. Potency, µM (highest dose often 92.2 µM), for the others: at the highest dose activity change, negative = less growth. hit rate 0.21% among 360,000; active = well fitted falling curve with a large enough effect; inconclusive = small, poorly fitted or top-dose-only effect; inactive = no such curve, though single readings can be large or run the other way;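 note: % is set by controls: 0 for no effect and ±100 for the full control effect; nearly all actives have a fitted effect of over 50% in size; the assay follows cell death caused by Vpr and the record does not say whether a fall means rescue or toxicity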
#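 Fission yeast strain RE007, carrying one chromosomally integrated HIV-1 vpr copy, was seeded at OD 0.01 in PMG+AL medium with 23 nL pinned compound. After 24 h at 30 °C and 99% humidity, viability was read by BacTiter-Glo luminescence.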
# NS1 function inh – blocks influenza NS1 protein function. S. cerevisiae slowed by influenza A NS1, growth recovery by OD600. Potency, µM (highest dose often 46.1 µM), inactives show at the top dose activity, positive = more growth. hit rate 0.4% among 270,000. AID 2326; active means well fitted rising curve with a large enough effect; inconclusive means small, poorly fitted or top-dose-only effect; inactive means no such curve, though single readings can be large or run the other way; note: nearly all actives have a fitted effect of over 50% in size
#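 S. cerevisiae expressing influenza A NS1, grown in glucose, washed, then diluted 1:100 into pH 6.0 -URA galactose medium with 23 nl compound. Growth recovery read as OD600; NS1-free strain serves as control.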
# Cruzain inh noDet – cruzain (T. cruzi) inhibition without detergent; P25779; purified cruzain, Z-FR-AMC fluorescence, no detergent; Potency, µM, inactives show max response, negative = inhibition, most hits filed as inhibitors; hit rate 2.3% among 200,000; AID 1476;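 note: plate controls were enzyme without inhibitor for no effect and buffer without enzyme for full effect; nearly all actives have a fitted effect of over 40% in size; top concentration of the series not given in the record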
# Target sequence (P25779 123-467 limits assumed): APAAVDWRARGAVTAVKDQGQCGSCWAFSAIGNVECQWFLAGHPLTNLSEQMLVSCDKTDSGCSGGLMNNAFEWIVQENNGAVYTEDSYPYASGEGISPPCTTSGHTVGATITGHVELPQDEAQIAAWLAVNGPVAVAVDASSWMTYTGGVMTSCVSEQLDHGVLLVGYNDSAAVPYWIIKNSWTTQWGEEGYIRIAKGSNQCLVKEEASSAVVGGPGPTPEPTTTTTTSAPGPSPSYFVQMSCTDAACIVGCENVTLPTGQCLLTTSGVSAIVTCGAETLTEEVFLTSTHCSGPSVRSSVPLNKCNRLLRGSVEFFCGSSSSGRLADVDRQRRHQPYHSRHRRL
#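 Purified cruzain at 1.5 nM, pre-incubated 15 min with compound at room temperature in 100 mM sodium acetate pH 5.5, 5 mM DTT, 0.00005% Triton X-100. Reaction started with 2 uM Z-FR-AMC; AMC fluorescence increase over 60 s gives rate.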
# Lassa entry inh – inhibitors of Lassa virus binding or cell entry; Lassa virus pseudotype entry inhibition, cell reporter; control for the full effect not named in the record; Potency, µM (titrated, usually from 37.9 µM), for the others: at the top dose activity change, negative = inhibition, usual class: inhibitors; hit rate 1.2% among 300,000; AID 540256; active means well fitted inhibition curve with a large enough effect; inconclusive means small, poorly fitted or top-dose-only effect, or effect the other way; inactive means flat fitted curve, though single readings scatter; tested in HEK293 cells; note: % is set by controls: 0 for no effect and ±100 for the full control effect; nearly all actives have a fitted effect of over 50% in size; luciferase read-out
# StopGo reporter – FMDV 2A StopGo reporter, luciferase signal; human cells with a luciferase reporter of 2A StopGo recoding; control for the full effect not named in the record; Potency, µM (highest dose often 57.9 µM), without a hit: at the highest dose signal change, negative = less light; hit rate 1.2% among 410,000; active = well fitted falling curve with a large enough effect; inconclusive = small, poorly fitted or top-dose-only effect; inactive = no such curve, though single readings can be large or run the other way; tested in HEK293T cells; note: % is set by controls: 0 for no effect and ±100 for the full control effect; nearly all actives have a fitted effect of over 45% in size; luciferase light after 4 h
# Cruzain Triton – blocks cruzain activity in presence of Triton detergent; P25779; purified cruzain, Z-FR-AMC fluorescence, 0.01% Triton; Potency, µM, for inactives: max response, negative = inhibition, hits mostly inhibitors; hit rate 0.43% among 200,000; AID 1478;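 note: plate controls were neutral wells for no effect and buffer without enzyme for full effect; nearly all actives have a fitted effect of over 40% in size; top concentration of the series not given in the record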
#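 Detergent-containing arm of a paired screen for aggregation-based inhibition: 0.01% Triton X-100 present. Cruzain at 1.5 nM cleaved 2 uM Z-FR-AMC at pH 5.5 with 5 mM DTT; AMC fluorescence gain over 60 s measured activity.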
# MARV entry inh – inhibitors of Marburg virus binding or cell entry; Marburg virus pseudotyped entry inhibition, cell reporter; control for the full effect not named in the record; about a third of the inactives were read at about 46 µM; hit rate 1.8% among 300,000; Potency, µM (titrated, usually from 37.8 µM), for inactives: top-dose activity change, negative = inhibition, hits mostly inhibitors; active = well fitted inhibition curve with a large enough effect; inconclusive = small, poorly fitted or top-dose-only effect, or effect the other way; inactive = flat fitted curve, though single readings scatter; tested in HEK293 cells; about a fifth of its hits are not listed in these tables; note: % is set by controls: 0 for no effect and ±100 for the full control effect; luciferase read-out
# SARS PLpro yeast – inhibitors of SARS-CoV papain-like protease in yeast; Potency, µM (doses to about 32.9 µM), without a hit: at the top dose activity, positive = growth rescue; AID 485353; S. cerevisiae expressing SARS-CoV PLpro, growth rescue; control for the full effect not named in the record; hit rate 0.19% among 330,000; active means well fitted rising curve with a large enough effect; inconclusive means small, poorly fitted or top-dose-only effect; inactive means no such curve, though single readings can be large or run the other way; note: 0% is about no effect; nearly all actives have a fitted effect of over 55% in size; growth read by luminescence after 48 h
# Numbers without * were called inactive; ? = inconclusive; . = not tested or not shown; & = joins results of further samples; [ ] = another dose, or the depositor's remark. Unless noted, calls come from the whole dose curve; as a rule, active = well fitted curve in the direction sought with a large enough effect; inconclusive = small, poorly fitted or top-dose-only effect, or another doubt; inactive = no such curve, though single readings can be large; an effect the other way counts as inactive or inconclusive. Potency is the fitted concentration of half-maximal effect.
SMILES,RE007 growth inh,NS1 function inh,Cruzain inh noDet,Lassa entry inh,StopGo reporter,Cruzain Triton,MARV entry inh,SARS PLpro yeast
c1ccc(-n2nnnc2SCc2cn3cccnc3n2)cc1,4.1%,6.7%,-25.3%,1.4%,7.7%,-2.5%,20.9%,7.6%
COc1ccccc1CN(Cc1ccco1)c1cnc(S(C)(=O)=O)nc1C(=O)Nc1cc(C)ccc1C,.,.,?,?,-7.3%,-3.6%,?,.
CCOC(=O)c1ccc(NC(=O)CCNc2c(N3CCCC3)c(=O)c2=O)cc1,23.3%,1.4%,-4.8%,-0.3%,-20.8%,-3.7%,6.8%,2.7%
CCOC(=O)c1cnc2c(c(C)nn2C)c1Oc1cc(Cl)cc(Cl)c1,-3.1%,1.2%,.,?,?,.,?,1.2%
O=C1NC(=O)C(=Cc2ccc(-c3ccccc3[N+](=O)[O-])o2)C(=O)N1,4.9%,-11.9%,.,17.5%,35.5µM*,.,?,0.0%
COc1ccc(Cl)c2sc(N(Cc3cccnc3)C(C)=O)nc12,5.5%,-13.5%,.,?,-7.6%,.,8.5%[46.1 µM],-1.0%
N#C/C(=C\c1ccc(OCc2cccc(C(=O)O)c2)cc1)C(=O)NCc1ccco1,-0.4%,6.6%,.,.,-8.7%,.,.,-1.5%
COc1ccccc1C1N(c2cc(Cl)ccc2OC)C(=O)C2CCCN21 (stereo not given),4.7%,-0.2%,16.8%,.,-15.9%,4.5%,.,-3.2%
COc1ccc(Cl)cc1NC(=O)c1cc(=O)c2cc(C)cc(C)c2o1,.,.,-2.1%,4.8%[46.1 µM],-16.2%,-2.2%,?,.
CSc1nsc(N/N=C/c2ccccc2)c1C#N,-10.8%,.,.,-2.4%,28.1%,.,-29.3%[46.1 µM],-2.7%
CSc1nc2ccc3nc(NC(=O)C4COc5ccccc5O4)sc3c2s1 (stereo not given),2.6%,12.9%,8.2%,.,-15.9%,-3.5%,.,-4.9%
CCc1ccc(C(=O)Cn2cnc3cc([N+](=O)[O-])ccc3c2=O)cc1,5.2%,-5.2%,.,.,?,.,.,0.5%
CCCCn1c(O)c(C(C)=NCCN2CCCCC2)c(=O)[nH]c1=O,3.8%,-5.6%,-1.4%,-7.7%,-3.3%,1.2%,5.0%,-0.7%
Cc1ccnc(SCC(=O)NC2CCCCCC2)n1,3.1%,11.6%,.,.,5.7%,.,.,1.9%
Cc1cccc(NC(c2cccc(Cl)c2)c2ccc3cccnc3c2O)n1 (stereo not given),.,.,?,10µM*,-12.0%,-18.2%,?,.
CC(NC(=O)COC(=O)c1ccc(Br)o1)c1ccccc1 (stereo not given),17.6%,.,.,0.2%,4.9%,.,10.2%,5.7%
Cc1ccc(-c2cc(N)on2)cc1,-10.5%,-3.0%,4.2%,5.0%,52.4%[activator],-1.5%,6.1%,-24.3%
OC(COCc1ccco1)CN1CCN(C(c2ccccc2)c2ccccc2)CC1 (stereo not given),-7.8%,-10.0%,-7.3%,?,-27.8%,3.6%,?,-0.1%
COc1ccccc1N1CCN(C2CCCN(C(=O)c3cccc(-c4ccco4)c3)C2)CC1 (stereo not given),-0.3%,-7.6%,.,?,0.0%,.,-6.5%,-5.2%
O=C(CN1CCOCC1)Nc1ccc(Br)cn1,5.3%,6.5%,12.1%,8.8%,.,2.6%,3.9%,1.2%
O=C(Nc1cc(Cl)ccc1Cl)c1noc2c1CCCC2,-19.3%,?,.,.,-23.0%,.,.,1.2%
OCCC1CN(Cc2ccon2)CCN1CCc1ccccc1 (stereo not given),3.8%,0.6%,.,6.4%[46.1 µM],-4.2%,.,-23.2%[46.1 µM],-0.9%
Cc1cccc(-n2ncc3c(NNC(=O)c4ccccc4Cl)ncnc32)c1,.,.,3.4%,0.9%[46.1 µM],-17.3%,0.1%,.,.
COc1cccc2c1[C@@H]1CN(CCCCn3c(=O)[nH]c4c(sc5ncc(-c6ccccc6)nc54)c3=O)C[C@@H]1CO2,-8.7%[18.4 µM],-32.1%,?,?,-20.9%,28.2µM*,7.94µM*,.
C#CCOCCOCCOCCNc1nc(N2CCN(C(=O)[C@H]([C@@H](C)CC)n3cc([C@@H](N)CC(C)C)nn3)CC2)nc(N2CCN(C(=O)[C@H](CCCCN)n3cc([C@@H](N)C(C)CC)nn3)CC2)n1 (stereo not given in full),10.8%,2.5%,.,.,1.2%,.,.,0.0%
CC1(C)Cc2nc(-c3ccccc3)nc(SCC(=O)N3CCOCC3)c2CO1,-1.6%,13.5%,.,.,-26.1%,.,.,-2.8%
O=C(NCc1cccs1)c1noc2c1CCCCC2,-14.8%,-7.0%,-0.5%,12.5%,68.9%[activator],0.3%,-7.0%,3.8%
COc1ccc(NC(=O)CS(=O)(=O)c2cn(CC(=O)N(C(C)C)C(C)C)c3ccccc23)c(OC)c1,0.8%,-4.5%,.,-5.6%,-17.3%,.,-0.5%,4.7%
COc1cccc(C2Nc3ccccc3C(=O)N2O)c1O (stereo not given),-0.6%,-23.0%,-2.5%,-3.9%,36.1%[activator],5.4%,16.8%,2.3%
CCOC(=O)C1(Cc2ccccc2C(F)(F)F)CCN(Cc2ccon2)CC1,-7.1%,4.4%,.,8.2%,-23.1%,.,?,-0.1%
CN(C)S(=O)(=O)c1ccc(Cl)c(C(=O)Nc2nc3ccccc3[nH]2)c1,13.6%,.,.,?,-11.5%,.,-26.0%[46.1 µM],-2.3%
Fc1cccc2sc(N3CCCC3)nc12,5.5%,-5.6%,.,?,56.8%[activator],.,?,-0.4%
CCn1c(=S)sc2c(=O)n(CC(=O)Nc3ccc(C(C)=O)cc3)c(C)nc21,-1.9%,-2.2%,.,.,-18.7%,.,.,4.0%
CSc1nc2sc3c(c2c(=O)n1-c1ccc(C)cc1)CCCC3,.,.,15.8%,-8.5%[46.1 µM],-10.2%,0.7%,.,.
CCOC(=O)Cc1csc(NC(=O)CN(C)S(=O)(=O)c2cccc3cccnc23)n1,-7.2%,-1.0%,-3.2%,.,?,4.5%,2.1%,1.6%
O=C(NCCCNC(=O)c1cnccn1)c1cccc(F)c1,-1.7%,-0.6%,.,4.0%,-14.6%,.,13.4%[46.1 µM],-0.8%
CC1CCN(Cc2c(O)ccc3c(=O)c(-c4cccc(Cl)c4)c(C(F)(F)F)oc23)CC1,.,.,-5.1%,3.8%[46.1 µM],-3.0%,-0.8%,?,.
Cc1ccc(OCc2cc(C(=O)NCc3ccc(OC(F)(F)F)cc3)no2)cn1,-8.3%,-17.3%,.,.,-21.4%,.,.,-6.8%
CCCN1CNc2c(c(=O)[nH]c(=S)n2CCc2ccc(OC)c(OC)c2)C1,0.6%,-0.7%,.,5.7%,-17.2%,.,0.5%&0.5%,0.0%
Cn1nc(C(=O)NCCCN2CCCCC2)c2c1-c1ccccc1S(=O)(=O)C2,7.1%,3.4%,.,.,-8.0%,.,.,-2.8%
CC(=O)N1CCN(c2ccccc2NC(=O)COc2cc(C)cc(C)c2)CC1,-7.1%,-1.7%,.,-16.9%,-15.4%,.,8.9%[46.1 µM],-0.6%
COCCn1c(SCC(=O)Nc2ccc(C(C)=O)cc2)nnc1-c1ccco1,-3.7%,-5.7%,.,.,19.4%,.,8.9%[46.1 µM],-4.5%
CN1CCN(/C=C2\SC(=S)NC2=O)CC1,-13.2%,1.7%,-11.7%,-1.2%,-12.2%,-1.6%,-2.1%,1.5%
CC(=O)Nc1ccc(OC(=O)N(C)c2ccccc2)cc1,0.9%,0.0%,4.1%,12.9%,18.3%,2.8%,14.4%,25.3%
COC1=C(Nc2ccccc2)C(=O)C(OC)=C(Nc2ccccc2)C1=O,-12.4%,.,.,-9.8%[46.1 µM],7.7%,.,4.7%[46.1 µM],.
COc1ccc(NS(=O)(=O)c2cn(C)c(=O)n(C)c2=O)c(OC)c1,-1.2%,-5.4%,.,.,-6.7%,.,.,0.5%
COc1ccc(-c2csc(N(Cc3ccccc3)C(=O)COc3ccc(Cl)cc3)n2)cc1,-17.8%,-7.7%,6.31µM*,3.9%,5.7%,1.4%,-17.2%,-0.2%
Cc1cccc(CC2(O)C(=O)Nc3ccccc32)n1 (stereo not given),1.8%,.,.,?,-13.0%,.,?,.
Cc1ccccc1NC(=O)C(c1ccccc1)C1CCCC1 (stereo not given),-13.6%,8.4%,2.9%,10.1%,-21.3%,5.5%,?,?
COC1=NC(=C(c2ccccc2)c2ccccc2)OC1=O,0.8%,.,.,?,-12.9%,.,-23.2%[46.1 µM],.
Cc1cccc(NC(=O)Nc2cccc(C#N)c2)n1,0.0%,-2.6%,-23.0%,.,41.5%[activator],1.8%,.,-0.6%
CCCC(c1nnnn1C(C)(C)C)N1CCN(C(=O)c2ccco2)CC1 (stereo not given),-2.7%,-0.9%,.,7.2%[46.1 µM],0.0%,.,12.5%[46.1 µM],0.7%
CC(C)CC(NC(=O)C1CCCN1C(=O)OC(C)(C)C)C(=O)NCC(N)=O (stereo not given),1.0%,-8.9%,-5.0%,12.4%,5.0%,1.6%,12.6%,-1.9%
Cn1nc(C(F)(F)F)c2cc(C(=O)Nc3ccc(Cl)cc3)sc21,12.1%,-6.3%,-4.0%,-19.3%,?,-0.9%,?,3.8%
O=C(CCCN1C(=O)/C(=C/c2cccs2)SC1=S)NNC(=O)c1ccc(F)cc1,-9.6%,11.9%,-23.0%,?,-11.1%,-1.8%,?,5.3%
Cc1cccc(C(=O)N2CCc3cc(-c4csc(NC(=O)CN5CCCC5)n4)ccc32)c1,1.8%,3.4%,.,.,?,.,?,0.2%
CC(C)(C(=O)c1ccccc1)/[N+]([O-])=C/c1ccc(Br)cc1,5.5%,.,.,23.8%[14.3 µM],-11.5%,.,0.2%,.
O=C1NC[C@@H](Cc2ccc(O)cc2)N(CC2CCCCC2)C1=O,-0.3%,-3.0%,.,.,-13.0%,.,.,-5.5%
